VDR inhibitor = blocks the human vitamin D receptor | Potency, µM, without a hit: max response, negative = inhibition, hits mostly inhibitors | AID 504847 | 400,000 tested, 0.93% active | P11473 | VDR-SRC2-3 peptide fluorescence polarization, 2 h; active = well fitted inhibition curve with a large enough effect; inconclusive = small, poorly fitted or top-dose-only effect, or another doubt; inactive = no such curve, though single readings can be large or run the other way; also: series mostly up to about 120 µM
Target sequence (P11473 whole entry, looked up): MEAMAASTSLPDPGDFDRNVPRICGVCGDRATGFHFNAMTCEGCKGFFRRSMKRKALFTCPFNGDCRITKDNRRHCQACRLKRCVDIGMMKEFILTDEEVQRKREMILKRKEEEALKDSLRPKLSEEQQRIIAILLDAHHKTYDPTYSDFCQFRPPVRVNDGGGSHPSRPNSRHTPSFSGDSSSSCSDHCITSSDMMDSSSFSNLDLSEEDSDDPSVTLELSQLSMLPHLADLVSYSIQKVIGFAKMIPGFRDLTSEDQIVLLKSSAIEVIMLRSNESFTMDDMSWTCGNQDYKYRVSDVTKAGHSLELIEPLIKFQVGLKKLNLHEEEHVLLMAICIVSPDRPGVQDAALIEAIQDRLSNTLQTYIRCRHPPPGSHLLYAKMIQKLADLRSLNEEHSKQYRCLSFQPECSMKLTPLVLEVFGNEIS
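The screen uses fluorescence polarization to detect compounds that interfere with recruitment of the SRC2-3 coactivator peptide to VDR; plates are read after 2 h at room temperature.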
Active calls of the source: *; ? = inconclusive; & = joins results of further samples; [ ] = remark or other dose. % is scaled to controls: 0 for no effect and ±100 for the full control effect; potency is read from the fitted curve at half-maximal effect. A portion of the library (hit frequency here may not be typical).

SMILES	VDR inhibitor
O=C(Cc1ccc(S(=O)(=O)N2CCCC2)s1)N1CCN(c2ccc(F)cc2)CC1	-14%
O=C(CN(C1CCCCC1)C1CCCCC1)N1CCc2ccccc2C1	-6%
O=C(c1cc(F)ccc1F)C1CCCN(C(=O)c2ccc3nccnc3c2)C1 (stereo not given)	4%
COc1cc(C2C(C#N)=C(N)Oc3cc(N)ccc32)cc(OC)c1OC (stereo not given)	-2%
CC(C)(C)C(=O)COC(=O)c1cc2ccccc2cc1O	21%
Cc1sc2ncnc(N/N=C/c3ccc(O)cc3)c2c1C	5%
O=C(NCC(=O)N1CCOCC1)c1ccccc1	-27%
Cc1ccc(CN2C(=O)C(Cc3ccccc3)Nc3ncnc(N4CCCCC4)c32)cc1 (stereo not given)	-9%
O=C(COC(=O)C1=Cc2ccccc2OC1)NC1CCCC1	1%
CCOC(=O)N1C(C)CN(/[N+]([O-])=N/Oc2ccc([N+](=O)[O-])cc2[N+](=O)[O-])CC1C (stereo not given)	-14%
CCN(CC)c1ccc(/C=N/NC(=O)C2CC2)cc1	-9%
O=C1OC(Nc2ccc(Cl)cn2)c2ccccc21 (stereo not given)	-3%
CCN(CC(=O)NCc1ccc(Cl)cc1)C(=O)c1sccc1C	-1%
CC(C)c1ccc(NC(=O)CSc2nc3ccsc3c(=O)n2Cc2ccc(C(=O)O)cc2)cc1	-5%
CCN(C(=O)C1CCN(S(=O)(=O)c2ccc3c(c2)CCCN3C(=O)C2CCC2)CC1)c1cccc(C)c1	-7%
O=C(CN1C(=O)C2(OCCCO2)c2ccccc21)NCc1ccccc1	6%
Cc1cc(F)c(F)c(C(=O)N2CCOCC2)c1	5%
COC(=O)c1nn(-c2cccc(Cl)c2)cc(OC)c1=O	11%
O=C1CSC(c2cccc([N+](=O)[O-])c2)N1c1ccc(O)cc1 (stereo not given)	-15%
O=C(CCn1cnc(-c2ccccc2)c1-c1ccccc1)N/N=C/c1ccccc1O	6%
CCO[C@@H]1OC(C(=O)O)=C[C@H](c2ccccc2)[C@H]1CCCO	-9%
COc1ccc(CCC(=O)N2CCN(c3ccc([N+](=O)[O-])cc3)CC2)cc1OC	-4%
O=C(NC1CCC(O)CC1)c1ccc(S(=O)(=O)NCc2ccco2)cc1 (stereo not given)	?
O=C(NCc1ccco1)/C(=C/c1ccco1)NC(=O)c1ccccc1	2%
Cc1ccc(Nc2nc(N)nc(CC#N)n2)cc1	-15%
COc1cc(OC)c(C2Nc3ccccc3-c3nnc(SCc4ccccc4)nc3O2)cc1OC (stereo not given)	15%
CN(C(=O)c1ccc(OC2CCN(S(=O)(=O)N(C)C)CC2)cc1)C1CCCCC1	28%
COc1ccc(NCc2nnc(SCC(=O)c3ccc(OC)cc3)n2C)cc1	-10%
Cc1cccc(C)c1OCc1nc2c3cnn(-c4ccccc4F)c3ncn2n1	11%
CN=C1C([N+](=O)[O-])=CC=C2C1=NC1(CCCCC1)N2O	4%
Cc1ccc(CCNC(=O)C2CCCN(S(=O)(=O)c3c(C)nn(C)c3C)C2)cc1 (stereo not given)	-9%
Cc1cccc(C)c1NC(=O)Cn1c(=O)n(CC2CCC(C(=O)NCCc3ccccc3)CC2)c(=O)c2ccccc21 (stereo not given)	4%
Cc1nn(C)c(Cl)c1CN1CCC(Oc2ccc(C(=O)N3CCCC3)cc2)CC1	-8%
COc1cc(OC)c(OC)cc1/C=N/NC(=O)c1ccc(CSc2nc(C)cc(C)n2)cc1	0%
COCCn1c(=O)c(-c2ccc(OC)cc2)nc2cnc(Oc3ccc(OC)cc3)nc21	-11%
Cc1noc(C)c1S(=O)(=O)Nc1ccc2c(c1)CC(=O)N([C@H](C)CO)C[C@H](C)[C@@H](CN(C)CC1CC1)O2	3%
COC(=O)CCCn1c(-c2ccc(C)cc2)c(C)n2c3c(=O)n(C)c(=O)n(C)c3nc12	0%
CCn1cc(/C=N\NC(=O)c2ccc(F)cc2)cn1	-8%
COc1ccc(CCNC(=O)/C=C/c2ccc(S(=O)(=O)N3CCOCC3)cc2)cc1	11%
Nc1nc(-c2cccnc2)nn1C(=O)c1ccc(F)cc1	0%
CC(=O)c1c(C)nn(-c2ccccc2)c1C	10%
Cc1cc(C)cc(NC(=O)C2CCCN2S(=O)(=O)c2cccc3nsnc23)c1 (stereo not given)	5%
CCOc1cc(C2C3=C(CCCC3=O)Nc3ccc4ncccc4c32)ccc1O (stereo not given)	-5%
Cc1ccnc(NC2OC(=O)c3ccccc32)c1 (stereo not given)	-11%
O=c1oc(CCO)cc2ccc(C#Cc3ccsc3)cc12	-9%
Cc1ccccc1CNC(=O)/C=C\C(=O)O	-1%
CCCCC12CN3CC(C)(CN(C1)C3c1c[nH]c3ccccc13)C2=O (stereo not given)	-2%
O=C(NNC(=O)c1cc(Br)c(Br)s1)c1ccncc1	-26%

Three compounds out of the list above, sorted by their value in VDR inhibitor, smallest number first.
SMILES	VDR inhibitor
O=C(NNC(=O)c1cc(Br)c(Br)s1)c1ccncc1	-26%
COc1cc(C2C(C#N)=C(N)Oc3cc(N)ccc32)cc(OC)c1OC (stereo not given)	-2%
COc1ccc(CCNC(=O)/C=C/c2ccc(S(=O)(=O)N3CCOCC3)cc2)cc1	11%

More compounds follow.
SMILES	VDR inhibitor
Cc1ccc2cc(C#N)c(N3CCN(C)CC3)nc2c1	3%
CC(C)=CCN1CCN(Cc2nc(-c3ccc(F)cc3)cs2)CC1CCO (stereo not given)	3%
O=C(CC1SCCNC1=O)Nc1cccc(Cl)c1 (stereo not given)	8%
Cc1c(O)cc2n(c1=O)-c1ccccc1C2(C)C	0%
C/C(=N\NC(=S)NCc1ccccc1)c1ccco1	-12%
O=C(c1cccs1)N1CCN(Cc2ccccc2)CC1	-5%
Cc1sc2ncn(CC(=O)N(C)C3CCCCC3)c(=O)c2c1C	8%
COc1cc(C(c2oc(CO)cc(=O)c2O)c2oc(CO)cc(=O)c2O)cc(OC)c1OC	-9%
Cc1ccc(-c2ccc(/C=N\NC(=O)c3cc4c(ccc5ccccc54)o3)o2)cc1[N+](=O)[O-]	5%
Cc1cc(C)c(NC(=O)CCc2c(C)noc2C)c(C)c1	0%
CCCN1CCC(=NNC(=O)CSc2cc(C)c(Br)cc2C)CC1	-2%
COc1ccc(N(C)C(=O)c2cc3c(Cl)nc4ccccc4c3s2)cc1	-16%
COc1ccc(N2CC(c3nc(-c4ccccc4C)no3)CC2=O)cc1Cl (stereo not given)	11%
O=C(OCC#CCSc1nnc(-c2cccc3ccccc23)o1)c1cccs1	-9%
CC(C)CN(C(=O)c1cccc(S(=O)(=O)N2CCCCC2)c1)C1CCS(=O)(=O)C1 (stereo not given)	-1%&1%
Cc1nnc2c(N3CCN(CCO)CC3)nc3ccccc3n12	-15%
CC(C)NC(=O)c1ccc(CN2CCC(Cc3ccccc3)CC2)cc1	6%
NC(=O)c1cc(S(=O)(=O)NC2CCCCC2)co1	-10%
COCC1CCN(C(=O)c2ccc(OC3CCN(Cc4ccccn4)CC3)cc2)C1 (stereo not given)	-23%
Cc1c(NC(=O)C(C)Sc2n[nH]c(N)n2)c(=O)n(-c2ccccc2)n1C (stereo not given)	0%
Cc1cc(C)nc(NC2=NCC(=O)N2c2cccc(Cl)c2)n1	0%
COc1ccc(OC)c(-c2noc(N3CCN(c4ccc(C(C)=O)cc4)CC3)n2)c1	5%
COc1ccc(N(C(=O)c2snc(C(N)=O)c2N)C(C(=O)NCc2ccc(F)cc2)c2ccc(C)o2)c(OC)c1 (stereo not given)	-12%
CSc1ccc(C(=O)C2CCCN(C(=O)Cn3cnnn3)C2)cc1 (stereo not given)	-10%

An excerpt from above in order of SMILES length, rising.
SMILES	VDR inhibitor
Cc1nnc2c(N3CCN(CCO)CC3)nc3ccccc3n12	-15%
CC(C)NC(=O)c1ccc(CN2CCC(Cc3ccccc3)CC2)cc1	6%
COc1ccc(N2CC(c3nc(-c4ccccc4C)no3)CC2=O)cc1Cl (stereo not given)	11%

Going on with the list:
SMILES	VDR inhibitor
Cc1cc(-c2ccc(C)c(S(=O)(=O)NCCc3ccccc3)c2)on1	9%
COc1ccc(OCCCC(=O)OCC(=O)Nc2ccc(Cl)cn2)cc1	-12%
CC(CC(F)(F)F)N1CCC(n2nccc2NC(=O)CCOc2ccccc2)CC1 (stereo not given)	2%
Cc1nc2ccccc2c(=O)n1NC(=O)c1ccccc1Cl	7%
Cc1cccc(NC(=O)CCSc2nncn2C)c1	1%
C#CCOCCOCCOCCNc1nc(N2CCN(C(=O)[C@H](CCC(=O)O)n3cc(CN)nn3)CC2)nc(N2CCN(C(=O)[C@H](CCC(=O)O)n3cc([C@@H](N)[C@H](C)CC)nn3)CC2)n1	2%
C[C@H](CO)N1C[C@H](C)[C@@H](CN(C)Cc2ccc(Cl)c(Cl)c2)Oc2c(NS(=O)(=O)c3cccs3)cccc2C1=O	-5%
O=C(NCc1ccccc1)c1cc(=O)c2ccccc2o1	16%
COc1ccc(-n2c(CNC(=O)COc3ccc(Cl)cc3Cl)n[nH]c2=S)cc1	4%
CCCCC(=O)NC(c1cccs1)c1cc(Cl)c2cccnc2c1O (stereo not given)	3%
COC(=O)C1=C(N)Oc2cc(C)n(CCN3CCOCC3)c(=O)c2C1c1cccnc1 (stereo not given)	2%
COc1cccc(C(O)C2OC(=O)c3ccccc32)c1OC (stereo not given)	1%

Continued (2 carried over from the part before).
SMILES	VDR inhibitor
COC(=O)C1=C(N)Oc2cc(C)n(CCN3CCOCC3)c(=O)c2C1c1cccnc1 (stereo not given)	2%
COc1cccc(C(O)C2OC(=O)c3ccccc32)c1OC (stereo not given)	1%
CC1(C)CC(=O)C(C2=NC(C)(C)Cc3ccccc32)=C(O)C1	-19%
CN(C)c1cccc(C(=O)NC2CCCCCC2)c1	-28%
CN(C)C(CNC(=O)c1ccc(S(=O)(=O)Nc2ccccc2F)cc1)c1ccccc1 (stereo not given)	15%
COC(=O)c1cccc(-c2ccc(/C=N/N3C(=O)C4C5C=CC(C6CC56)C4C3=O)o2)c1 (stereo not given)	-4%
C=CCn1c(C)c(C(C)=O)c(SC)nc1=S	-7%
COc1ccc(OCC(=O)O/N=C(\N)c2ccc(OC)c(OC)c2)cc1	-27%
CC1CCCN(C(=O)C2CCN(Cc3ccc4c(c3)OCO4)CC2)C1 (stereo not given)	8%
CC1(C)CC(NCc2ccc3c(c2)OCO3)CCO1 (stereo not given)	5%
O=C(C1=C[C@H](C2CCCCC2)C[C@H](OCc2ccc(CO)cc2)O1)N1CCN(Cc2ccc3c(c2)OCO3)CC1	-13%
CCCCc1nn2c(=O)cc(COC(=O)c3ccc(NC(=O)c4cccs4)cc3)nc2s1	17%
Cc1cc(NC(=O)CCC(=O)N(c2ccc(F)cc2)C2(C(=O)NC3CCCCC3)CCCC2)no1	-2%
CCOC(=O)c1ccccc1NC(=O)Cn1c(=O)n(Cc2nc(C)no2)c(=O)c2ccccc21	-1%

Random excerpt: 3 entries already listed.
SMILES	VDR inhibitor
CN(C)c1cccc(C(=O)NC2CCCCCC2)c1	-28%
COC(=O)c1cccc(-c2ccc(/C=N/N3C(=O)C4C5C=CC(C6CC56)C4C3=O)o2)c1 (stereo not given)	-4%
CC1(C)CC(NCc2ccc3c(c2)OCO3)CCO1 (stereo not given)	5%

Remaining list, next part
SMILES	VDR inhibitor
CCCCC[C@H](O)C=C[C@H]1[C@H](O)CC(=O)[C@H]1CCCCCCC(=O)O	-24%
NC(=O)COc1c(-c2ccccc2)oc2ccccc2c1=O	-18%
CC(=O)c1ccc(N=C2SCCCN2C(=O)C2CCCC2)cc1	-8%
COCCn1c(=O)cnc2cnc(Nc3cccc(OC)c3)nc21	9%
CCN(CC)c1ccc(NC(=O)C2COc3ccc(OC)cc3C2)c(C)c1 (stereo not given)	0%
CC(C)N(CC(N)=O)c1ncnc2sc(-c3ccccc3)cc12	-15%
COc1ccc(NC(=O)C(C)N2c3cccc4cccc(c34)S2(=O)=O)cc1OC (stereo not given)	16%
CC1=C(C#N)C(c2ccc(O)cc2)C2=C(CCCC2=O)N1 (stereo not given)	16%
O=C(COc1ccc2ccc(=O)oc2c1)NC1CCCC1	1%
CC1CCCN(S(=O)(=O)c2ccc(C(=O)Nc3nnc(-c4ccccc4Cl)o3)cc2)C1 (stereo not given)	13%
O=C(NN1C(=O)C2C3C=CC(C4CC34)C2C1=O)c1ccc(Cl)c(Cl)c1 (stereo not given)	-10%
CCCn1nc(C(=O)N2CCN(S(=O)(=O)c3ccc(C)c(C)c3)CC2)c2ccccc2c1=O	-2%
COc1cc(NC(=O)c2cc3nc(C4CC4)cc(C(F)(F)F)n3n2)c(OC)cc1Cl	1%
Cc1onc(-c2ccccc2)c1C(=O)N/N=C/C=C/c1ccccc1	-10%
COc1ccc(-c2[nH]ncc2CN(C)CC2CCCCO2)cc1F (stereo not given)	-15%
CCC(=O)Nc1ccc2c(c1)nc(CN1CCN(C(C)=O)CC1)n2C	-3%
COc1ccc(CCC(=O)NNC(=O)c2ccc(OC)cc2)cc1	11%
O=[N+]([O-])c1ccccc1S(=O)(=O)Oc1ccc(/C=N/n2cnnc2)cc1	5%
O=c1[nH]c(/C(Cl)=C/c2cccc(C(F)(F)F)c2)nc2cc(Cl)ccc12	0%
COCCNc1cc(-c2ccccc2)nc2cc(-c3cccc(F)c3)nn12	3%
O=C(Cn1nnc(-c2ccc(Cl)cc2)n1)NCc1ccc(F)cc1	0%
Oc1cc(O)c(CN2CCOCC2)cc1CN1CCOCC1	-10%
CC(NC(=O)CCC(=O)NC(C)C1COc2ccccc2O1)C1COc2ccccc2O1 (stereo not given)	3%
CN(C(=O)COC(=O)c1cc(=O)[nH]c2ccccc12)c1ccccc1	0%
Cc1ccc(C(C)(C)c2ccc(C)cc2)cc1	5%
CCOC(=O)CSc1nnc(Cn2c(=O)sc3ccccc32)n1-c1ccccc1C	1%
CCC1SC(CC)C(=O)N(CC(=O)Nc2ccc3c(c2)OCO3)C1=O (stereo not given)	34%[activator]
O=C1CSC(c2ccc(Cl)cc2)N1C1CCCCC1 (stereo not given)	24%
CSc1nc(N)nc(C2CC2)n1	-2%

Source: PubChem (National Center for Advancing Translational Sciences (NCATS))
